# From PubChem BioAssay
# HNF4A DNA FP: change in binding of human HNF4 alpha to DNA. HNF4a-FITC DNA binding, fluorescence polarization, 1 h. P41235. activity change, % at 10 µM. hit rate 0.3% among 360,000. AID 1224865; in the data active means activity change above about 30%, passing the limit was not always enough;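 further: controls were the assay level and a saturating level of protein; the project sought stronger binding though the title names inhibitors; some compounds called inactive have numbers as strong as hits; positive values seem to mean higher polarization but the record does not say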
# E coli growth: blocks Escherichia coli growth; OD600 absorbance (concentration not given with the values); hit rate 0.21% among 330,000; OD600, 23 h; active compounds read low;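 active means OD600 absorbance below the run mean of sample wells minus 3.6 SD, in any replicate, cut at about 0.56 in these data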;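 further: stock transfer was 300 nL into about 60 µL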
# Beta2AR agonist: activates human beta-2 adrenergic receptor causing internalization; AID 504454; Am2.2-beta2AR cells, FAP receptor internalization, flow cytometry; reference of the scale not given here; response, % (no concentration beside the values); P07550; hit rate 0.43% among 340,000;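 active means response above a set limit, near 3 SD of response in nonfluorescent compounds, cut at about 42% in these data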;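 further: stock transfer was 100 nL into about 11 µL; a reference agonist was the positive control; negative values mostly stem from fluorescent compounds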
# FGF22 binding: shifts melting point of recombinant human FGF22; recombinant FGF22 thermal shift, SYPRO orange fluorescence; percent of sucrose octasulfate shift, DMSO zero; calls only at 9.99 µM; hit rate 1.5% among 340,000; AID 651658;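 active means melting point raised past a set limit in the mean and every replicate; inconclusive means no clear call; three in four hits are not shown here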
# Target sequence (Q9HCT0 whole entry, looked up): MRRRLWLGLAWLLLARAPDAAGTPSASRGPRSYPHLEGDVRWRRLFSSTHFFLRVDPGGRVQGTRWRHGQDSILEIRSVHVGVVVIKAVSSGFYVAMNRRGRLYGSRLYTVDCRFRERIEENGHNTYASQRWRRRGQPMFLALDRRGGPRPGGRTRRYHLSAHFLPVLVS
# ALR H2O2 inh: inhibitors of human sulfhydryl oxidase ALR. P55789. purified ALR, DTT oxidation, H2O2 HRP-luminol luminescence. inhibition, % (test concentration not listed). hit rate 3.8% among 290,000. AID 485317;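 active means mean and each replicate at 75% or more; inconclusive means only one of the two met; inactive means neither met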;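 further: stock transfer was 7.5 nL into about 7.5 µL; 0% = neutral wells and 100% = wells with inactivated enzyme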
# Target sequence (P55789 whole entry, looked up): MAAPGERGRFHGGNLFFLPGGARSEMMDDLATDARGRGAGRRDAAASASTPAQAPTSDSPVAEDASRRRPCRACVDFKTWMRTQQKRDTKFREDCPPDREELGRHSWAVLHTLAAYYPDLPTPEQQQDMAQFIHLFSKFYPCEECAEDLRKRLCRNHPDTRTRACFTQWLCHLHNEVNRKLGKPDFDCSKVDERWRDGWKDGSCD
# Ecoli rRNA inh: selective bacterial rRNA inhibition in E. coli | E. coli WT GFP vs humanized-ribosome RFP mutants, fluorescence, 24 h; active compounds read low; DMSO median 0, no signal -100 | GFP signal change (wild-type ribosome), % (no concentration beside the values) | hit rate 1.6% among 350,000 | AID 720706;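 active means significant combined selectivity score with lowered wild-type GFP, culture density cut under 30%, mutant RFP and density less affected; inactive means any of these conditions unmet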; further: one replicate is shown; some compounds called inactive have numbers as strong as hits
# UCH37 inh: human UCH37 deubiquitinating enzyme inhibition; purified proteasome/UCH37, Ub-AMC cleavage fluorescence; inhibition, % (test concentration not listed); AID 588478; Q9Y5K5; hit rate 0.33% among 330,000;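 active means mean of two replicates above 20%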;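 further: 0% = compound-free wells with enzyme and 100% = wells lacking proteasome; stock transfer was 100 nL into about 20 µL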
# Target sequence (Q9Y5K5 whole entry, looked up): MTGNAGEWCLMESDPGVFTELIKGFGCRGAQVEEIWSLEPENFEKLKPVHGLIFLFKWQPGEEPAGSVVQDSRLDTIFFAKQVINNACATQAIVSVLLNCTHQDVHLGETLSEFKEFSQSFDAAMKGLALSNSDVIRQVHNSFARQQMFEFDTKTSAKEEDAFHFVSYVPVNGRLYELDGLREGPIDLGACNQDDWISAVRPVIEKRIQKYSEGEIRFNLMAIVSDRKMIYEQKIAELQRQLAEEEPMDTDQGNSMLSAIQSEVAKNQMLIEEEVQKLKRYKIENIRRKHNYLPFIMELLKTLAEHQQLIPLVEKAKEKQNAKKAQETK
#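 Reagent: Ub-AMC substrate; assay system: Proteasome-associated human UCH37 deubiquitinase; controls: no-proteasome and no-compound wells; read-out: % inhibition of Ub-AMC cleavage fluorescence; timing: 30 min preincubation with enzyme, 25 min cleavage at room temperature; signal: AMC fluorescence from Ub-AMC cleavage, excitation 355 nm, emission 460 nm; buffer or medium: Tris-HCl pH 7.4 plus ovalbumin, ATP-MgCl2, DTT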
# Ecoli rRNA inh OD600: further read-out of Ecoli rRNA inh, marked with its call; OD600 change, %; measured here: OD600 growth;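 optical density of the mix in the first replicate; 0 = DMSO median and -100 = no signal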
# Ecoli rRNA inh RFP: recorded beside Ecoli rRNA inh, whose call it bears; RFP signal change, %; measured here: RFP humanized mutant strains;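 first replicate; 0 = DMSO median and -100 = no signal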
# An asterisk follows results filed as active; i = inactive; u = inconclusive; x = no result given. A portion of the library; count on the stated rates, not on these rows.
entry	SMILES	ALR H2O2 inh	Beta2AR agonist	UCH37 inh	Ecoli rRNA inh RFP	E coli growth	Ecoli rRNA inh	HNF4A DNA FP	FGF22 binding	Ecoli rRNA inh OD600
1	[N-]=[N+]=CC(=O)C(c1ccccc1)(c1ccccc1)c1ccccc1	x	-6	0.6	x	0.68	x	-3.1	i	x
2	C[C@H](NC(=O)NCc1ccc(F)cc1)C(=O)O	0	6	4.3	x	x	x	-30	x	x
3	COc1cc(OC)c(OC)cc1/C=N/NC(=O)c1ccc2nc[nH]c2c1	-4	-3	x	-1.0	x	9	0.1	i	5
4	Cc1ccccc1OCC(=O)NCCNC(=O)c1ccncc1	8	-1	-1.0	0.6	0.68	10	0.8	i	13
5	Cn1c(CO)cnc1SCC(=O)c1ccc(F)cc1	x	-13	1.7	-2.2	0.68	-5	4.5	i	2
6	CN(CC(=O)Nc1ccccc1F)CC(=O)Nc1ccccc1Br	-1	7	-1.3	-5.8	0.7	-2	6.1	i	-2
7	CCOc1ccc(NC(=S)NC(=O)/C=C/c2ccc(Br)cc2)c([N+](=O)[O-])c1	x	14	3.2	0.6	0.72	4	0.2	i	2
8	O=C(Nc1ccccc1F)c1ccc(Br)o1	x	-3	0.5	-5.0	x	2	-5.1	i	-1
9	CC(=O)NC1C(=O)N=C(SCc2ccccc2)NC1=O (configuration not stated)	20	1	3.7	x	0.75	x	1.1	x	x
10	CCCOCCOC(=O)C1=C(C)NC(=O)NC1c1cc(Cl)c(O)c(OC)c1 (configuration not stated)	22	4	0.8	-6.1	0.7	0	-0.9	x	3
11	Clc1ccccc1NN(Cc1ccccn1)c1ccccc1Cl	x	x	x	-1.5	x	0	-0.6	i	-11
12	CC(C)Nc1nc2cccnc2s1	-4	-5	1.2	-0.8	0.69	3	0.5	i	4
13	COc1ccc(-c2nc(CS(=O)(=O)CC(=O)NCc3ccc4c(c3)OCO4)c(C)o2)cc1	-7	-1	-0.7	-1.5	0.67	10	0.6	i	4
14	Cc1cc(C)n(CC(C)NCc2cn[nH]c2-c2cccc3ccccc23)n1 (configuration not stated)	-2	3	0.8	x	0.68	x	0.5	i	x
15	CCOC(=O)C(C)/C(C)=N\Nc1ccc([N+](=O)[O-])cc1[N+](=O)[O-] (configuration not stated)	-7	4	x	-1.1	x	5	-5.4	i	-2
16	Cc1ccc(S(=O)(=O)N2[C@@H](c3cccc(C)c3)C(C(=O)O)=C[C@H]2C(C)(C)C)cc1	x	5	1.0	-4.0	0.68	-7	0.3	i	0
17	CN(CCO)c1ccc2c(c1)OC[C@H](Cc1ccccc1)NS2(=O)=O	x	x	x	2.0	x	-1	-4.1	i	5
18	CCOC(=O)C1(CCCc2ccccc2)CCN(Cc2cnc(C)s2)CC1	-9	4	-0.8	-8.7	0.64	-35	-2.3	i	-55
19	COCCn1c(SC(C)C(=O)Nc2ccc(Cl)cn2)nnc1-c1ccncc1 (configuration not stated)	x	-5	0.9	-0.7	0.62	-1	-0.3	i	6
20	O=C(Nc1ccc(Cl)c(C(F)(F)F)c1)c1ccco1	-1	-11	5.5	x	0.62	x	2.0	x	x
21	Cc1c(Cl)cccc1NC(=S)N1CCc2ccccc2C1	-3	8	5.8	4.3	0.76	6	-0.5	i	11
22	CCOC(=O)CCCCC1C(CCCC(=O)OCC)C=NN1C (configuration not stated)	x	10	x	1.3	x	8	4.3	i	6
23	C#CC(C)(C)NC(=O)c1sccc1Oc1ccc(F)cc1[N+](=O)[O-]	-6	-2	1.0	-4.2	0.68	-21	0.6	i	-25
24	COc1cc(C(=O)NCCC(=O)NCc2cccs2)cc(OC)c1OC	x	x	x	-0.2	x	14	1.3	i	9
25	O=C(NCCN1CCCCC1)c1cc(OCC(F)(F)F)ccc1OCC(F)(F)F	-1	0	3.9	x	0.72	x	1.6	x	x
26	CC(C)(C)CC(=O)Nc1nnc(C(F)(F)F)s1	-7	-3	2.2	x	0.68	x	1.1	x	x
27	C[C@H](NC(=O)[C@H]1N2C(=O)c3ccccc3C2SC1(C)C)C(=O)N1CCC[C@H]1CO (some centres not stated)	x	-4	5.6	6.4	0.71	5	2.3	i	-4
28	Cc1c(NC(=O)CSc2nnc(C(C)N(C)C)n2-c2ccccc2)c(=O)n(-c2ccccc2)n1C (configuration not stated)	x	-10	0.4	0.4	0.67	12	2.4	i	11
29	N#C/C(=C\c1cn(CCOc2ccccc2F)c2ccccc12)C(=O)NCc1cccs1	-9	1	-61	-1.7	0.75	5	-3.7	i	4
30	CC(NC(=O)Cc1ccccc1)C(c1ccccc1)N1CCOCC1 (configuration not stated)	-5	1	4.4	-1.5	0.7	5	-0.8	i	7
31	CN(C)C(=O)CSc1nc2cc(S(=O)(=O)N3CCOCC3)ccc2o1	-8	-4	-1.8	4.1	0.68	9	-4.9	i	15
32	COc1ccccc1CNC(=O)CN1C(=O)NC(C)(c2ccc(C(C)(C)C)cc2)C1=O (configuration not stated)	-8	-15	-1.9	0.4	0.72	-2	0.0	i	2
33	CC(C)(C)NC(=O)C(c1ccccn1)N(C(=O)C1CSC(=O)C1)c1cccc(F)c1 (configuration not stated)	-4	3	-0.3	1.5	0.72	10	-0.1	i	9
34	Cc1ccccc1-c1noc(CCC(=O)NCCc2ccccc2)n1	-20	-8	1.2	5.0	0.66	-2	-3.9	i	-6
35	COc1ccccc1CC(=O)Nc1ccc2[nH]ncc2c1	-9	-4	3.1	3.1	0.61	9	0.9	i	5
36	O=C(NC(O)C(=O)c1ccc(F)cc1)c1ccc(F)cc1 (configuration not stated)	-5	-4	1.9	20	0.7	31	-1.4	i	3
37	O=C(Cn1cnc2ccccc2c1=O)Nc1nnc(SCc2ccc(Cl)cc2)s1	-3	0	0.4	5.7	0.74	3	4.2	i	-2
38	CC1CCc2nn(CC(=O)NCCN3CCOCC3)cc2C1 (configuration not stated)	-3	6	2.5	0.2	0.77	5	-1.1	i	11
39	Cc1ccc(-n2c(C)cc(C(=O)OCC(=O)N(CC(C)C)C3CCS(=O)(=O)C3)c2C)cc1 (configuration not stated)	-4	-7	5.0	x	0.69	x	2.0	x	x
40	O=C1NC(c2ccc(F)cc2)Oc2ccccc21 (configuration not stated)	3	2	3.5	0.8	0.66	7	3.8	i	7
41	C=CCc1c(C)nc(SCC(=C)C)[nH]c1=O	-17	-7	3.8	-5.4	0.67	-22	-2.0	x	-32
42	O=C(NCC1CCCCC1)c1ccc(Cl)nc1	-2	-8	1.1	-1.3	0.68	1	-6.2	i	7
43	O=C(CN1C(=O)c2ccccc2S1(=O)=O)c1ccc(O)c(O)c1	u	-2	8.0	0.4	0.65	-6	2.3	i	6
44	CC1(C(=O)Nc2cccc(C#N)c2)CCN1C(=O)CCc1ccccc1 (configuration not stated)	x	x	x	0.5	x	-4	-4.1	i	-11
45	COc1cc(/C=N/O)ccc1OCc1ccc(Cl)cc1	-14	x	x	-1.3	x	-20	x	i	-12
46	Cc1ccc(-c2cc(C(F)(F)F)n3nc(C(=O)NCCCn4ccnc4)cc3n2)cc1C	-69	-3	-28	x	0.68	x	2.8	x	x
47	CCOc1cc(C2Nc3ccccc3NC3=C2C(=O)CC(C)(C)C3)ccc1O (configuration not stated)	90*	6	7.4	39	0.67	11	2.5	i	5
48	CCOC(=O)CSC1=C(C#N)C(c2sccc2C)C(C(C)=O)=C(C)N1 (configuration not stated)	-16	5	-0.1	-3.8*	0.7	-40*	-2.5	i	-26*
49	Cc1ccccc1NC(=O)C(NC1CCCCC1)C(C)C (configuration not stated)	99*	-1	1.2	3.7	0.72	7	2.3	i	9
50	CCC(=O)Nc1nnc(SCC(=O)NC2CCCC2)s1	-6	4	4.3	-1.3	0.67	6	2.6	i	4

# (continued)
entry	SMILES	ALR H2O2 inh	Beta2AR agonist	UCH37 inh	Ecoli rRNA inh RFP	E coli growth	Ecoli rRNA inh	HNF4A DNA FP	FGF22 binding	Ecoli rRNA inh OD600
51	CC(=O)c1ccc(OCCCC(=O)Nc2cc(Cl)ccc2-n2cncn2)cc1	-21	-4	0.0	0.1	0.72	0	1.1	i	21
52	CN(C)S(=O)(=O)c1ccc(C(=O)Oc2ccccc2)cc1	2	1	2.0	x	0.66	x	1.0	x	x
53	CCn1cc(C(=O)N2CC(C)CC(C)C2)c(=O)c2cc(S(=O)(=O)N3CCCC3)ccc21 (configuration not stated)	-4	-1	4.0	-0.6	0.61	6	-2.1	i	9
54	O=C(CN1CCN(Cc2ccccc2)CC1)NCc1ccc(Cl)cc1	-13	-5	1.1	2.3	0.67	3	-0.6	i	7
55	C/C(=N\Nc1ccccc1C(=O)O)c1ccncc1	37	14	x	2.5	x	0	-2.9	x	-2
56	CCc1cccc(NC(=O)c2cccc3c2C(=O)N(CC2CCCO2)C3)c1 (configuration not stated)	4	-8	0.3	-2.5	0.66	-4	-1.2	i	-19
57	CCCN(C(=O)c1ccc2c(SCC(=O)O)c3c(nc2c1)CCC3)c1cccc(C)c1	59	3	6.3	-1.7	0.69	-3	1.9	i	-10
58	O=C(Nc1nnc(C2CC2)o1)c1ccc(S(=O)(=O)N2CCc3ccccc3C2)cc1	31	0	4.2	x	0.71	x	2.2	x	x
59	O=C(O)c1cccc2c1C(=O)N(C1CCCC1)C2	-11	0	0.4	1.8	0.68	16	0.1	i	12
60	Cc1ccc(-n2c(SCC(N)=O)nnc2-c2cnccn2)cc1	-2	4	4.7	-2.9*	0.71	-25*	1.8	i	8.6*
61	CCOC(=O)N(NC(=O)C(O)(c1ccccc1)c1ccccc1)c1ccccc1	-2	6	-0.1	x	0.65	x	-2.0	x	x
62	O=C(/C=C/c1ccc2c(c1)OCO2)Nc1c(C(=O)O)[nH]c2ccccc12	98*	-4	x	1.1	x	-8	-2.1	i	-2
63	Cc1cccc(NC(=O)CNC(=O)COc2ccc(-c3ccc(C#N)cc3)cc2)c1C	51	10	-25	x	0.68	x	-0.6	x	x
64	CCOC(=O)c1nnn(-c2nonc2-n2cccc2)c1CN1CCCCC1	x	3	1.8	x	0.71	x	4.2	x	x
65	O=C(CC1C(=O)NCCN1Cc1ccccc1C(F)(F)F)NC1CCCC1 (configuration not stated)	-3	-3	-0.9	8.8	0.74	18	0.9	i	13
66	COC(=O)c1ccc(OCC(O)CN2CCC(C)CC2)cc1 (configuration not stated)	-53	5	8.0	-2.3	0.75	9	1.5	i	7
67	CC(NS(=O)(=O)c1ccc2c(c1)OCCO2)c1ccccc1 (configuration not stated)	3	-8	1.6	-2.9	0.64	-8	5.1	i	-16
68	CCCC(NC(=O)Cc1c(C)c2c(cc(C)c3c(C)coc32)oc1=O)C(=O)O (configuration not stated)	x	1	-362	-0.7	0.67	-4	-0.7	i	-14

# Grouped by structure: those above with a tert-butyl group
entry	SMILES	ALR H2O2 inh	Beta2AR agonist	UCH37 inh	Ecoli rRNA inh RFP	E coli growth	Ecoli rRNA inh	HNF4A DNA FP	FGF22 binding	Ecoli rRNA inh OD600
16	Cc1ccc(S(=O)(=O)N2[C@@H](c3cccc(C)c3)C(C(=O)O)=C[C@H]2C(C)(C)C)cc1	x	5	1.0	-4.0	0.68	-7	0.3	i	0
26	CC(C)(C)CC(=O)Nc1nnc(C(F)(F)F)s1	-7	-3	2.2	x	0.68	x	1.1	x	x
32	COc1ccccc1CNC(=O)CN1C(=O)NC(C)(c2ccc(C(C)(C)C)cc2)C1=O (configuration not stated)	-8	-15	-1.9	0.4	0.72	-2	0.0	i	2
33	CC(C)(C)NC(=O)C(c1ccccn1)N(C(=O)C1CSC(=O)C1)c1cccc(F)c1 (configuration not stated)	-4	3	-0.3	1.5	0.72	10	-0.1	i	9
